# Rango complex inh = qHTS Assay for Inhibitors of Rango (Ran-regulated importin-beta cargo) - Importin beta complex formation; Rango CFP/YFP FRET sensor + importin beta, 45 min; Importin subunit beta-1 (Homo sapiens), Q14974; Potency, µM (doses to about 92.2 µM), for inactives: at the highest dose inhibition of complex formation; 340,000 tested, 0.031% active; active = rising FRET ratio curve, often small or poorly fitted; inconclusive = mostly compound fluorescence or quenching in the first reads; inactive = flat curves in all reads;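 note: potency is the fitted concentration of half-maximal effect; 0% = DMSO wells and 100% = buffer wells lacking importin beta; nearly all actives have a fitted effect of over 15% in size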
# Target sequence (Q14974 whole entry, looked up): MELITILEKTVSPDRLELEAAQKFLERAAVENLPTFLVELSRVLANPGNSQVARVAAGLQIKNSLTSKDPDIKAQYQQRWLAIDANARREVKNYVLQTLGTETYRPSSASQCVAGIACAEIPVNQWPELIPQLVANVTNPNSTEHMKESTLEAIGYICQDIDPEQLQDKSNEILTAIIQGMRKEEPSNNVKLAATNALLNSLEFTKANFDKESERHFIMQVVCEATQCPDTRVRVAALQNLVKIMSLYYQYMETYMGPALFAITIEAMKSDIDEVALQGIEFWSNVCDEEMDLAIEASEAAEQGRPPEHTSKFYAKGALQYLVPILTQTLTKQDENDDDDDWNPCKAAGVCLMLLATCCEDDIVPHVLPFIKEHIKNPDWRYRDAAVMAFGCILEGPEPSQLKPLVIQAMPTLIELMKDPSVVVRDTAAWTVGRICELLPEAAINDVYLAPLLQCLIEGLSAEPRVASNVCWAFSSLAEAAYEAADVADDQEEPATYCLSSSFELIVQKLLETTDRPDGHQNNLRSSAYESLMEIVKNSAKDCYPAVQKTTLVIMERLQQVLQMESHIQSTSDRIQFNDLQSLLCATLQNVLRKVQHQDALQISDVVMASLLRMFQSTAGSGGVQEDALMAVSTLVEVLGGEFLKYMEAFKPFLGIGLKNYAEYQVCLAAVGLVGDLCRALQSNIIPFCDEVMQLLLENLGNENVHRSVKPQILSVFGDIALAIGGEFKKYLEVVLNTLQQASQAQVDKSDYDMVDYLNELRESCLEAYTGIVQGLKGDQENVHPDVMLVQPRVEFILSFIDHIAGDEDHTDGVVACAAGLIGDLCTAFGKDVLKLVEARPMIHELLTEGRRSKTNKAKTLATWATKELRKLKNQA
#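 FRET biosensor Rango (snurportin 1 IBB between N-terminal EYFP and C-terminal Cerulean), 50 nM in PBS/1 mM DTT/0.02% Tween-20/0.1% BSA, preincubated 5 min RT with compound; 0.125 microM importin beta added, 45 min RT, CFP/YFP FRET ratio read.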
# Rango dissoc inh = qHTS Assay for Inhibitors of RanGTP induced Rango (Ran-regulated importin-beta cargo) - Importin beta complex dissociation. Snurportin-1 (Homo sapiens) + GTP-binding nuclear protein Ran (Homo sapiens) + Importin …. Biochemical FRET Rango-importin beta, RanGTP-induced dissociation. Potency, µM (highest dose often 46.1 µM), inactives show at the highest dose activity change, negative = inhibition. 340,000 tested, 0.071% active. AID 540253, 2011; active means falling FRET ratio curve, often poorly fitted, with flat reads before Ran was added; inconclusive means other falling curves, or compound fluorescence or quenching; inactive means flat or rising ratio curve;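 note: potency is the fitted concentration of half-maximal effect; % of control where 0% means no effect; nearly all actives have a fitted effect of over 45% in size; -100% = wells without RanGTP and RCC1; the record marks most hits as doubtful in a second field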
#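 Compounds preincubate 5 min with complex of recombinant Rango and importin beta in PBS with 1 mM DTT. Ran (0.6 uM) loaded with 2 mM GTP plus 0.2 uM RCC1 starts dissociation; FRET is recorded 45 min later.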
# miR-21 FLuc = qHTS Assay for Modulators of miRNAs and/orActivators of miR-21 | HeLa miR-21 FLuc reporter, luciferase, 48 h | Potency, µM (series often up to 38.3 µM), inactives show at the top dose reporter change, positive = more light | 340,000 tested, under 10 active | AID 2288, 2010; active = well fitted rising curve with a large enough effect; inconclusive = small, poorly fitted or top-dose-only effect; inactive = no such curve, though single readings can be large or run the other way;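 note: % of control where 0% means no effect; miR-21 action dims this reporter so a rising signal means less miR-21 action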
#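 Compounds were titrated across several concentrations (up to approximately 40 uM) and incubated 48 hours with HeLa miR-21-FLuc reporter cells (miR-21 target sequence downstream of FLuc, endogenous miR-21). Readout was firefly luciferase luminescence after lytic detection reagent.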
# GLA inh pH 4.5 = qHTS Assay for Inhibitors of Human alpha-Galactosidase at pH 4.5; 230,000 tested, under 10 active; Alpha-galactosidase A (Homo sapiens), P06280; purified enzyme, 4-MU-alpha-Gal fluorescence, pH 4.5; activity change, negative = inhibition, % at 105 µM; inconclusive = small, poorly fitted or top-dose-only inhibition, or a rising curve; inactive = flat fitted curve, though single readings scatter; no compound was filed as active;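 note: 0% = full activity with enzyme and -100% = basal without enzyme; dose as in the result columns while the protocol names 77 µM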
# Numbers without * were called inactive; ? = inconclusive; · = not tested or not shown.
SMILES,Rango complex inh,Rango dissoc inh,miR-21 FLuc,GLA inh pH 4.5
CCn1cc(C(=O)NCc2ccc3c(c2)OCO3)c(=O)c2cc(S(=O)(=O)N3CCOCC3)ccc21,0.3%,9.8%,-6.3%,-8.2
Cc1ccc2cccc(OCC(=O)N3CCc4ccccc43)c2n1,2.2%,-4.0%,-6.6%,-3.2
CC(NC1CCCC1)C(=O)Nc1ccccc1-c1ccccc1 (stereo unspecified),3.9%,0.3%,-0.5%,4.3
CCOc1ccc(C(=O)NCCC2=CCCCC2)cc1OCC,0.0%,18.3%,-27.0%,-4.4
COC(=O)/C=C/c1cccc([C@H]2[C@@H]3C=CC[C@@H](C)[C@@H]3C(=O)N2Cc2ccccc2)c1,-0.2%,8.5%,·,-13.1
Cc1c(N(C)C(=O)C2CCCN2S(=O)(=O)c2ccccc2)c(=O)n(-c2ccccc2)n1C (stereo unspecified),5.1%,-2.0%,-1.6%,-3.0
CCc1nc(NCCN)c(C#N)c2c1CSC(C)(C)C2,2.7%,15.9%,0.6%,5.2
CCc1nc(SCC(=O)Nc2cc(OC)ccc2OC)c2c(C)c(C)sc2n1,-0.4%,-15.6%,-4.5%,·
COc1ccc(N2CCN(c3ncnc4scc(-c5ccccc5)c34)CC2)cc1,1.3%,-14.0%,16.0%,·
Cc1ccc(Nc2nc3ccccc3[nH]2)nc1,-4.0%,10.7%,-40.5%,-7.2
CCCCn1c(SCC(=O)N(CC)C2CCS(=O)(=O)C2)nnc1C(CC)N(C)C (stereo unspecified),1.5%,-9.7%,-4.8%,-10.9
Cc1cc(C)nc(Nc2ccccc2Cl)n1,-2.3%,0.3%,-0.6%,·
CCOc1ccc(NC(=O)CN(C)C(=O)c2sc3ccccc3c2Cl)cc1OCC,-1.3%,-7.5%,·,·
COc1ccc(O)c(CN2CCC(n3nccc3NC(=O)CCOc3ccccc3)CC2)c1,-3.4%,1.7%,8.7%,·
O=C(NCc1cccc(C(F)(F)F)c1)c1cccc(S(=O)(=O)N2CCN(Cc3ccccc3)CC2)c1,0.3%,-0.9%,-0.4%,·
COCC(COS(N)(=O)=O)Cc1ccccc1 (stereo unspecified),-2.4%,1.3%,0.1%,·
Cc1noc(C)c1COC(=O)c1ccc(S(=O)(=O)NCc2ccco2)cc1,1.5%,-14.3%,5.1%,0.8
CCOC(=O)CSCc1csc(CC(=O)Nc2ccccc2C)n1,-0.8%,-4.1%,·,·
CCOC(=O)c1cc(-c2ccccc2)sc1NC(=O)COC(=O)c1cccc(S(N)(=O)=O)c1,-4.1%,2.2%,-5.2%,2.0
COC(=O)c1ccccc1NC(=O)CN(C)S(=O)(=O)c1cc(C)ccc1OC,-1.8%,6.2%,0.1%,-2.1
Cc1noc(C)c1C(=O)N1CCOCC1,-0.1%,0.2%,-1.8%,8.0
O=S(=O)(Nc1cccc(S(=O)(=O)N2CCCCC2)c1)c1ccccc1F,1.8%,9.7%,·,·
COc1cc(-c2nnc(CSc3nnc(N)s3)o2)cc(OC)c1OC,3.4%,-15.4%,-3.1%,0.2
COc1ccc(Cc2nnc(NC(=O)c3ccccc3[N+](=O)[O-])s2)cc1,-7.2%,1.8%,4.6%,-6.5
CN(C(=O)Cc1c[nH]c2ccccc12)C(C(=O)Nc1ccc2c(c1)OCO2)c1ccccc1 (stereo unspecified),-3.3%,8.2%,-0.1%,-7.1
SMILES,Rango complex inh,Rango dissoc inh,miR-21 FLuc,GLA inh pH 4.5
O=C(NCC1CCCO1)c1ccc(NC(=O)c2ccc(Br)cc2)cc1 (stereo unspecified),?,-10.2%,·,·
CCOC(=O)Nc1ccc2c(c1)N(C(=O)CN(CC)CC)c1ccccc1C=C2,-4.7%,0.0%,-3.6%,-12.3
COc1ccc(CCNC(=O)CS(=O)Cc2nc(-c3cccs3)oc2C)cc1OC (stereo unspecified),-4.1%,-16.4%,-4.2%,1.0
CCOCCCNC(=S)N(CCN(C)C)Cc1cc2cc3c(cc2[nH]c1=O)OCCO3,-4.4%,-17.4%,-1.6%,·
CCOc1ccc(-n2c(SCC)nc3c(c2=O)SCC3)cc1,-0.4%,-5.0%,-0.8%,-5.3
Cn1cc(CCNCc2cn[nH]c2-c2ccc(-c3ccccc3)cc2)cn1,0.8%,-6.6%,-46.3%,-7.7
CC(=O)N(CCCNC(=O)c1ccccc1)C(=O)c1ccccc1,-1.6%,1.2%,·,·
N#CCC(=O)Nc1ccc(C(=O)OCc2ccccc2Oc2ccccc2)cc1,?,-2.1%,-10.6%,·
O=C(NNc1ccc([N+](=O)[O-])cn1)Nc1ccc(N=Nc2ccccc2)cc1,-0.2%,-1.5%,·,·
CC1(C)NC(=O)N(CCOCCSc2ccccc2)C1=O,2.4%,0.6%,-24.7%,2.4
Cc1cc(=O)[nH]c(SCC(N)=O)c1C#N,0.3%,1.8%,-4.0%,2.6
O=C(c1ccccc1)N1CCN(c2ncnc3c(-c4ccccc4)nsc23)CC1,-2.7%,70.0%,-0.4%,-10.8
CC(=O)N1c2ccccc2N(Cc2ccc(C)cc2C)C(=O)C1(C)C,-6.6%,0.0%,22.8%,-13.7
Cc1sc(NC(=O)Cn2nc(C(F)(F)F)cc2C)c(C(=O)OC(C)C)c1C,3.2%,4.7%,0.0%,-1.9
COc1ccc(C2N=C(c3ccccc3)NC(c3ccccc3)=N2)cc1,-0.1%,1.0%,-4.0%,-9.7
CCCCn1c(N)c(N(CCOC)C(=O)c2cc(-c3ccc(F)cc3)nc3ccccc23)c(=O)[nH]c1=O,-1.6%,0.6%,·,·
Cc1ccc2c(c1)C(O)(CC(=O)c1cccc(-n3cccc3)c1)C(=O)N2 (stereo unspecified),-0.5%,3.7%,-6.3%,-0.1
CCOC(=O)C(=CNc1ccc(Cl)cn1)C(=O)OCC,2.0%,0.6%,-3.9%,-11.3
COc1cccc(CNCCc2c[nH]c3ccccc23)c1OCc1ccccc1,-0.5%,-3.4%,?,-8.8
Cc1ccc(NC(=O)CCNC(=O)c2ccco2)cc1Cl,1.7%,1.8%,-0.4%,·
CC(=O)c1ccc(NC(=O)CN2C(=O)NC3(CCc4ccccc43)C2=O)cc1 (stereo unspecified),-3.2%,7.4%,·,·
COc1ccccc1OCCC(=O)OCC(=O)Nc1ccc2c(c1)OCO2,-2.6%,?,·,·
O=C(O)CSc1nnc(-c2cc3ccccc3o2)n1-c1ccccc1,2.9%,-14.1%,-6.5%,2.6
CC(C)=C1CCC(C)CC1=NNC(N)=S (stereo unspecified),5.4%,-4.2%,·,·
O=C(NNC(=O)c1ccc(F)c(S(=O)(=O)N2CCOCC2)c1)c1ccc(Br)cc1,2.9%,-2.9%,·,·

# Two entries from above, set out differently:
smiles	Rango complex inh	Rango dissoc inh	miR-21 FLuc	GLA inh pH 4.5
O=C(O)CSc1nnc(-c2cc3ccccc3o2)n1-c1ccccc1	2.9%	-14.1%	-6.5%	2.6
O=C(NNC(=O)c1ccc(F)c(S(=O)(=O)N2CCOCC2)c1)c1ccc(Br)cc1	2.9%	-2.9%	·	·

# The listing continues.
SMILES,Rango complex inh,Rango dissoc inh,miR-21 FLuc,GLA inh pH 4.5
CON(C)C(=O)CC(CN(Cc1ccccc1)C(=O)OC(C)(C)C)c1ccc(Cl)cc1 (stereo unspecified),1.9%,-3.8%,·,·
Cc1ccc(C)c(C(=O)OCC(=O)Nc2cccc(S(=O)(=O)N3CCCCC3)c2)c1,-0.5%,-5.9%,·,·
Cc1c(Cl)cccc1NC(=O)Nc1ccn(C)n1,-1.1%,0.8%,-26.5%,2.7
CC(C)(C)c1ccc(S(=O)(=O)N2CCN(C(=O)C3=COCCO3)CC2)cc1,-3.2%,6.2%,·,·
CC1CCN(C(=O)c2[nH]cnc2C(=O)Nc2ccon2)CC1,-0.3%,8.1%,·,·
Cn1cccc1C1CCCN1CC(=O)Nc1ccc(F)c(F)c1F (stereo unspecified),-2.2%,-16.5%,·,·
CCOc1cc(Cl)c(CNCCCN2CCOCC2)cc1OC,3.3%,9.3%,-4.8%,·
COc1ccc(CCNC(=O)Cc2cc(OC)c(OC)cc2[N+](=O)[O-])cc1OC,-2.8%,0.3%,-4.3%,-2.8
O=C(NC1CCCc2c1cnn2-c1cc(F)cc(F)c1)c1cc[n+]([O-])cc1 (stereo unspecified),-3.0%,-9.4%,-6.5%,·
Oc1ccc(CN2CCC(Cc3ccccc3)CC2)c2cccnc12,-2.2%,-9.5%,?,-2.5
CSc1ccccc1C(=O)NCCSC(C)(C)C,0.2%,-0.2%,-7.9%,-6.6
Cc1ccc(S(=O)(=O)N2CCN(S(=O)(=O)c3ccc(C)cc3)C2c2ccccc2)cc1,-2.5%,-12.7%,4.9%,-6.7
CN1CCC(N(C)C(=O)CNC(=O)c2ccc(C(C)(C)C)cc2)CC1,-0.1%,10.4%,-5.9%,4.7
COc1ccc(NC(=O)Cn2nnc(C(=O)NCc3ccc(C)cc3)c2N)cc1OC,0.5%,16.9%,-3.0%,·
Cc1nn(C(C)C(=O)NCCc2cccs2)c(=O)c2nn(-c3ccccc3)c(C)c12 (stereo unspecified),1.1%,-9.6%,-3.9%,·
N=c1n(Cc2ccc(Cl)cc2)c2ccccc2n1CC(O)c1ccco1 (stereo unspecified),-0.8%,-9.5%,17.2%,-2.6
O=C(CSc1cccc2cccc(Cl)c12)NC1=NCCS1,-0.2%,-9.0%,-4.7%,5.9
COc1ccc(C(C(=O)NC2CCCCC2)N(C(=O)Cc2c[nH]c3ccccc23)c2ccccc2)cc1OC (stereo unspecified),0.2%,-5.4%,-4.4%,-2.2
CC(C)CC(=O)Nc1cccc(NC(=O)c2ccccc2Cl)c1,0.0%,0.0%,-5.8%,1.1
COCCn1cnc2c1c(=O)n(CC(=O)NN)c(=O)n2Cc1ccccc1,-1.1%,-11.4%,-0.6%,·
CC(=O)N1CCN(S(=O)(=O)c2cccc(C(=O)NC3CC3)c2)CC1,-2.3%,1.1%,·,·
Cc1cccc(N(C(=O)CNC(=O)c2ccco2)C(C(=O)NC2CCCC2)c2ccncc2)c1 (stereo unspecified),2.5%,-0.2%,-5.6%,-6.8
O=C(CCc1ccccc1)N1CCN(c2ccccc2F)CC1,-16.5%,6.6%,-2.8%,-1.2
O=C(COc1ccccc1)Nc1ccc(S(=O)(=O)Nc2ccccn2)cc1,-2.3%,-0.8%,-2.0%,·
CC1CCCC/C1=N\NC(=S)Nc1ccccc1 (stereo unspecified),-5.6%,2.6%,-24.7%,-15.7

# 3 entries from above, ordered by their value in GLA inh pH 4.5, smallest number first:
structure,GLA inh pH 4.5
CN(C(=O)Cc1c[nH]c2ccccc12)C(C(=O)Nc1ccc2c(c1)OCO2)c1ccccc1 (stereo unspecified),-7.1
COC(=O)c1ccccc1NC(=O)CN(C)S(=O)(=O)c1cc(C)ccc1OC,-2.1
Cc1noc(C)c1COC(=O)c1ccc(S(=O)(=O)NCc2ccco2)cc1,0.8

# Continued:
SMILES,Rango complex inh,Rango dissoc inh,miR-21 FLuc,GLA inh pH 4.5
Cc1ccc(OCC(O)Cn2c3ccccc3c3ccccc32)cc1 (stereo unspecified),-2.2%,17.6%,13.8%,5.8
COc1ccccc1C(=O)N1CCNC(=O)C1CC(=O)Nc1ccc(Cl)cc1 (stereo unspecified),-1.5%,2.2%,-19.5%,0.5
O=C(Nc1ccc(O)cc1C(=O)O)c1ccc2c(c1)C(=O)N(Cc1ccco1)C2=O,-0.6%,-8.7%,-7.5%,-9.7
O=C(COC(=O)c1ccc(-n2cnnn2)cc1)c1ccc(Br)cc1,4.5%,-5.5%,·,·
COc1ccccc1C1NC(=O)CCC1[N+](=O)[O-] (stereo unspecified),-0.1%,-9.9%,-0.3%,·
COc1ccc(S(=O)(=O)NCCOc2ccccc2)cc1F,0.5%,-8.2%,-8.0%,·
COc1ccc(C2OC[C@H]3O[C@H](O)[C@H](NC(C)=O)[C@@H](O)[C@@H]3O2)cc1 (stereo partly specified),2.9%,4.8%,-3.5%,·

# This is a subset; rates above refer to the full screens.
